MARV entry inh: blocks Marburg virus binding to or entry into cells; actives 1.8% (n = 300,000); Marburg virus pseudotyped entry inhibition, cell reporter; control for the full effect not named in the record; about a third of the inactives were read at about 46 µM; Potency, µM (titrated, usually from 37.8 µM), for the others: at the highest dose activity change, negative = inhibition, hits mostly inhibitors; AID 540276; active = well fitted inhibition curve with a large enough effect; inconclusive = small, poorly fitted or top-dose-only effect, or effect the other way; inactive = flat fitted curve, though single readings scatter; tested in HEK293 cells; about a fifth of its hits are not listed in these tables; further: on the % scale 0 is the no-effect control and ±100 the full control effect; luciferase read-out
Cruzain inh noDet: cruzain (T. cruzi) inhibition without detergent | P25779 | purified cruzain, Z-FR-AMC fluorescence, no detergent | Potency, µM, for the others: max response, negative = inhibition, hits mostly inhibitors | actives 2.3% (n = 200,000); active means well fitted curve in the direction sought with a large enough effect; inconclusive means small, poorly fitted or top-dose-only effect, or another doubt; inactive means no such curve, though single readings can be large; an effect the other way counts as inactive or inconclusive;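 further: plate controls were enzyme without inhibitor for no effect and buffer without enzyme for full effect; nearly all actives have a fitted effect of over 40% in size; top concentration of the series not given in the record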
Target sequence (P25779 123-467 limits assumed): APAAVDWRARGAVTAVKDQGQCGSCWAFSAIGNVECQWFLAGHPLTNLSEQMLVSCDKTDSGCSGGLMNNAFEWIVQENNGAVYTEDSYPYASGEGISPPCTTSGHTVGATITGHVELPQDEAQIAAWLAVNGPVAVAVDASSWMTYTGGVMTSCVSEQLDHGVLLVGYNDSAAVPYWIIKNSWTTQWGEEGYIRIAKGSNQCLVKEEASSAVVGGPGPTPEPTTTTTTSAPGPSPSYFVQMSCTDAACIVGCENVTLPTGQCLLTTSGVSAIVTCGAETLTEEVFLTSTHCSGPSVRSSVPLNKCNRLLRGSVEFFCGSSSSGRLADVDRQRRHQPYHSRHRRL
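Detergent-free condition (0.00005% Triton X-100) in acetate buffer pH 5.5 with DTT. 1.5 nM enzyme and compound were pre-mixed 15 min, then 2 uM Z-FR-AMC substrate added; reaction progress from fluorescence change between first and third reads (60 s).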
NS1 function inh: inhibitors of influenza NS1 protein function. AID 2326. Potency, µM (doses to about 46.1 µM), for inactives: at the top dose activity, positive = more growth. actives 0.4% (n = 270,000). S. cerevisiae slowed by influenza A NS1, growth recovery by OD600; further: actives are rising curves; nearly all actives have a fitted effect of over 50% in size
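In this qHTS, NS1 from influenza A is expressed in budding yeast, where it slows growth. Cells are switched from glucose to 2% galactose medium (pH 6.0, -URA), treated with compound, and growth recovery is read at OD600.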
Lassa entry inh: Lassa virus entry inhibition; actives 1.2% (n = 300,000); Potency, µM (top dose mostly 37.9 µM), for inactives: top-dose activity change, negative = inhibition, usual class: inhibitors; Lassa virus pseudotype entry inhibition, cell reporter; control for the full effect not named in the record; active means well fitted inhibition curve with a large enough effect; inconclusive means small, poorly fitted or top-dose-only effect, or effect the other way; inactive means flat fitted curve, though single readings scatter; tested in HEK293 cells; further: on the % scale 0 is the no-effect control and ±100 the full control effect; nearly all actives have a fitted effect of over 50% in size; luciferase read-out
2A StopGo: lowers the luciferase signal of an FMDV 2A StopGo reporter; actives 1.2% (n = 410,000); Potency, µM (doses to about 57.9 µM), for the others: at the highest dose signal change, negative = less light; human cells with a luciferase reporter of 2A StopGo recoding; control for the full effect not named in the record; AID 1159524; active = well fitted falling curve with a large enough effect; inconclusive = small, poorly fitted or top-dose-only effect; inactive = no such curve, though single readings can be large or run the other way; tested in HEK293T cells; further: on the % scale 0 is the no-effect control and ±100 the full control effect; nearly all actives have a fitted effect of over 45% in size; luciferase light after 4 h
SARS PLP yeast: blocks SARS-CoV papain-like protease in a yeast assay. Potency, µM (doses to about 32.9 µM), for inactives: top-dose activity, positive = growth rescue. S. cerevisiae expressing SARS-CoV PLpro, growth rescue; control for the full effect not named in the record. AID 485353. actives 0.19% (n = 330,000); further: 0% is about no effect; nearly all actives have a fitted effect of over 55% in size; growth read by luminescence after 48 h
Cruzain Triton: blocks cruzain activity in presence of Triton detergent. purified cruzain, Z-FR-AMC fluorescence, 0.01% Triton. P25779. actives 0.43% (n = 200,000). Potency, µM, inactives show max response, negative = inhibition, actives largely listed as inhibitors; active means well fitted curve in the direction sought with a large enough effect; inconclusive means small, poorly fitted or top-dose-only effect, or another doubt; inactive means no such curve, though single readings can be large; an effect the other way counts as inactive or inconclusive;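 further: plate controls were neutral wells for no effect and buffer without enzyme for full effect; nearly all actives have a fitted effect of over 40% in size; top concentration of the series not given in the record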
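Purified cruzain (1.5 nM final) was preincubated with compounds for 15 min at room temperature in 100 mM sodium acetate pH 5.5, 5 mM DTT, 0.01% Triton X-100. Reaction started with 2 uM Z-FR-AMC; AMC fluorescence change over 60 s gave activity.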
RE007 growth inh: less growth of the S. pombe RE007 Vpr strain; S. pombe RE007 Vpr strain, BacTiter-Glo ATP luminescence, 24 h; control for the full effect not named in the record; actives 0.21% (n = 360,000); Potency, µM (doses to about 92.2 µM), for inactives: at the highest dose activity change, negative = less growth; active = well fitted falling curve with a large enough effect; inconclusive = small, poorly fitted or top-dose-only effect; inactive = no such curve, though single readings can be large or run the other way;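 further: on the % scale 0 is the no-effect control and ±100 the full control effect; nearly all actives have a fitted effect of over 50% in size; the assay follows cell death caused by Vpr and the record does not say whether a fall means rescue or toxicity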
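Fission yeast strain RE007, carrying one chromosomally integrated HIV-1 vpr copy, was seeded at OD 0.01 in PMG+AL medium with 23 nL pinned compound. After 24 h at 30 °C and 99% humidity, viability was read by BacTiter-Glo luminescence.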
* hit, by the source's call; ? = inconclusive; . = not tested or not shown; & = joins results of further samples; [ ] = dose if it differs, or a comment. Unless noted, the call rests on the fitted dose curve; in most records, active means well fitted rising curve with a large enough effect; inconclusive means small, poorly fitted or top-dose-only effect; inactive means no such curve, though single readings can be large or run the other way. Potency means the concentration at half of the fitted maximal effect. Outcome played no part in choosing rows; about 4.7% have a hit in one of these screens.

SMILES	MARV entry inh	Cruzain inh noDet	NS1 function inh	Lassa entry inh	2A StopGo	SARS PLP yeast	Cruzain Triton	RE007 growth inh
CN(C(=O)COC(=O)c1ccccc1SCC(=O)N1CCCC1)C1CCS(=O)(=O)C1 (stereo not given)	-4%	.	2%	0%	-20%	-3%	.	-17%
CCOC(=O)C1CCN(c2nc3cc(OC)ccc3cc2C#N)CC1	14%	27%	-13%	?	?	-20%	-15%	-10%
COc1ccc(Oc2cccc(Cl)c2CNC(=O)c2ccccc2C(=O)O)cc1	.	.	-1%	.	-6%	0%	.	32%
COC(=O)CC1C(=O)NCCN1C(=S)Nc1cc(C)cc(C)c1 (stereo not given)	-6%	6%	-7%	0%	-20%	10%	-2.1%	31%
CCN=c1scc(-c2ccco2)n1/N=C/c1ccc(O)cc1	6%	?	-61%	?	78%[activator]	-12%	-9.2%	1%
CN(CC(=O)Nc1ccc(F)cc1)C(=O)CSc1nccn1C	-24%[46.1 µM]	.	.	-15%	-10%	-1%	.	15%
CC(C)c1ccc(Nc2c(-c3ccco3)nc3ccccn23)cc1	-13%[46.1 µM]	1%	.	-21%[46.1 µM]	10%	.	-11%	.
CC(C)CN(CC(C)C)C(=O)c1cc(S(=O)(=O)N2CCCCC2)c[nH]1	.	.	1%	.	-14%	-1%	.	-1%
O=C(O)c1ccc(Cl)c(S(=O)(=O)Nc2ccc(OCc3ccccc3)cc2)c1	5%[46.1 µM]	.	6%	-9%	57%[activator]	3%	.	-8%
N#CC1(Nc2cccc(Cl)c2)CCCC1	0%[46.1 µM]	.	.	-17%[46.1 µM]	6%	.	.	10%
Cc1c([N+](=O)[O-])c(C/C=N/O)nn1C	7%	.	4%	14%	-3%	1%	.	-6%
COc1ccc(-n2nc(C(N)=O)c(O)cc2=O)cc1	0%[46.1 µM]	.	.	1%[46.1 µM]	-2%	1%	.	-3%
Cc1cccc(OC2(c3ccccc3)OC(=O)c3ccccc32)c1C (stereo not given)	11%	?	25%	26%[14.3 µM]	0%	-23%	-1.6%	10%
Cc1ccc(N(Cc2cc3cccc(C)c3[nH]c2=O)S(=O)(=O)c2ccccc2)c(C)c1	.	.	24%	.	0%	-2%	.	1%
Cn1c(N)c(C(=O)COc2ccc(Cl)cc2Cl)c(=O)n(C)c1=O	?	.	.	?	3%	1%	.	-14%
COc1cccc(/C=N/NC(=O)c2ccoc2C)c1	?	.	-9%	?	5%	-2%	.	-11%
CCCc1cc(=O)[nH]c(SCc2nc3ccccc3s2)n1	0%	0%	4%	16%	8%	1%	-11%	5%
COC(=O)c1ccc(Cn2nnc3c(=O)[nH]c(C4CCCN(S(=O)(=O)c5ccc(C)cc5)C4)nc32)cc1 (stereo not given)	.	.	18%	.	?	6%	.	1%
Cc1onc(-c2c(F)cccc2Cl)c1C(=O)N1CCCC1	6%	.	.	10%	-14%	-1%	.	-3%
COc1ccc(-c2nc(-c3ccccc3)c(-c3ccc(O)cc3)[nH]2)cc1	-17%[46.1 µM]	?	.	-1%[46.1 µM]	-21%	.	-7.7%	.
COc1ccc(N(C(=O)c2cccnc2)S(=O)(=O)c2cc(OC)ccc2OC)cc1	-23%	.	-1%	-2%	41%[activator]	2%	.	-3%
O=C1c2c([N+](=O)[O-])cc([N+](=O)[O-])cc2S(=O)N1Cc1ccccc1 (stereo not given)	28%[46.1 µM]	.	.	8%[46.1 µM]	-14%	0%	.	1%
CCCCn1nnc(NC(=O)c2ccc(-c3ccccc3)cc2)n1	?	1%	-1%	16%	7%	4%	-2.7%	11%
CCOC(=O)c1sc(=S)n(-c2ccccc2)c1C	14%[46.1 µM]	.	-4%	-1%[46.1 µM]	-2%	-1%	.	17%
CCOCCCN(C(=O)c1snc(C(N)=O)c1N)C(C(=O)NC1CCCC1)c1ccc(F)cc1 (stereo not given)	?	.	-3%	-1%[46.1 µM]	-2%	0%	.	-1%
CCOc1ccccc1NC(=O)C1C2CCC3C(CCC21)C3(Cl)Cl (stereo not given)	.	.	3%	.	-27%	0%	.	-2%
CN(C)CCCOC(=O)c1cc2ccccc2o1	1%	-9%	5%	-3%	7%	-2%	3.6%	-23%
COCCn1c(=S)[nH]c2ncccc2c1=O	16%	5%	-2%	-7%	5%	1%	-6.4%	12%
CCCCc1nnc(NC(=O)CSc2nc(O)c(-c3ccccc3)c(=O)[nH]2)s1	1%[46.1 µM]	.	.	3%[46.1 µM]	13%	1%	.	-6%
COc1ccccc1CNC(=O)C1CCCCN1S(=O)(=O)c1ccccc1 (stereo not given)	-28%[46.1 µM]	.	-7%	-28%	-13%	0%	.	12%
Cc1ccc(S(=O)(=O)N2CCN(CC(=O)N/N=C\c3ccncc3)CC2)cc1	.	.	1%	.	-17%	0%	.	-9%
Cc1oc(-c2ccccc2F)nc1CN1CCC(C(=O)NCc2ccco2)CC1	-2%	-3%	-2%	-3%	-1%	-1%	0.8%	-1%
COc1ccc(CN2C(=NC(=O)CCc3ccccc3)SC3CS(=O)(=O)CC32)cc1 (stereo not given)	.	.	-4%	.	-20%	-1%	.	6%
Cc1ccc(NC(=O)c2ccc3nccnc3c2)c(C)c1	?	.	0%	2%[46.1 µM]	21%	-2%	.	-3%
S=c1[nH]nc(-c2ccncc2)n1/N=C/c1ccccc1	?	-1%	17%	1%	-28%	?	-1.6%	4%
CCOC(=O)C1CCN(C(=O)c2ccccc2Oc2ccccc2)CC1	-5%	3%	2%	-14%	-5%	1%	4.9%	3%
Cc1cc(CN(C)C(=O)CCc2nnc(Cc3cccc(C(F)(F)F)c3)o2)on1	23%[46.1 µM]	.	1%	-14%[46.1 µM]	25%	-2%	.	10%
Cc1oc2cc(OCc3cnn(-c4ccccc4)c3)ccc2c(=O)c1Oc1ccccc1F	2%	-23%	-8%	-1%	?	2.5µM*	-1.9%	-1%
CN1C(=O)C(C(=O)NC(C)(C)C)C2c3ccccc3OC13CCCCC23 (stereo not given)	-14%	2%	-6%	-23%	-21%	-8%	3.7%	-16%
COCCn1c(CNC(=O)c2ccccc2C)nc2cccnc21	.	-9%	.	0%[46.1 µM]	-13%	.	-1.4%	.
CCOc1ccc(S(=O)(=O)NCC(c2ccco2)S(=O)(=O)c2ccc(F)cc2)cc1 (stereo not given)	.	-5%	.	-19%[46.1 µM]	16%	.	-7.3%	.
O=C(OCc1cnc(Cl)s1)c1ccc(Cl)cc1	-4%	6%	-4%	5%	0%	5%	-0.1%	16%
Cc1cnc(C(=O)OCC(=O)c2ccc(Cl)cc2)cn1	.	.	4%	.	18%	-2%	.	8%
Cc1cccc(C)c1NC(=S)N(Cc1cccs1)C1CCCC1	?	.	.	-10%	-6%	-1%	.	19%
COc1ccc(NC(=O)N2c3ccccc3CC2C)cc1OC (stereo not given)	3%	3%	6%	11%	7%	1%	3.7%	-6%[3.69 µM]
CSc1cccc(NC(=O)NCc2cccc(CNC(=O)Nc3cccc(SC)c3)c2)c1	.	.	6%	.	-30%	7%	.	-3%
O=C(Nc1cc(S(=O)(=O)N2CCCCC2)ccc1Cl)C1COc2ccccc2O1 (stereo not given)	?	.	.	-25%	?	-2%	.	4%
COc1ccc(OCCn2cc(C(=O)c3ccco3)c3ccccc32)cc1	-28%[46.1 µM]	10%	.	?	?	.	-7.3%	.
S=C(NCC1COc2ccccc2O1)Nc1ccc(Br)cc1 (stereo not given)	3%	-14%	0%	3%	19%	2%	-15%	.
Nc1nc(SCC(=O)N2CCOCC2)[nH]c(=O)c1-c1ccccc1	19%[46.1 µM]	.	.	18%	-7%	10%	.	-12%
COc1cc(SC)ccc1C(=O)NNC(=O)c1cc(C)oc1C	?	.	.	?	-16%	4%	.	13µM*
CCOCCCNC(=O)C(NC(=O)Cc1c[nH]c2ccccc12)c1ccccc1 (stereo not given)	2%[46.1 µM]	.	.	-28%	6%	-3%	.	3%
CCN(C(=O)CSc1ncccc1C(=O)O)C1CCCCC1	-1%	.	.	7%	-8%	-1%	.	6%
CN(CCc1nc2ccc(Cl)cc2[nH]1)Cc1nc(CC2CC2)no1	.	.	-2%	.	?	-2%	.	-5%
COc1cc(OC)c(S(=O)(=O)N2CCCCC2)cc1S(=O)(=O)N1CCCCC1	-6%	?	-8%	-7%	18%	0%	-7.3%	13%
COc1cc(CCN2C(=O)N[C@@H](CCc3ccccc3)C(C(C)=O)=C2C)cc(OC)c1OC	-21%	3%&3%	-37%	-26%	-24%	4%	1.8%&-2.4%	2%
Cc1nnc(NC(=O)Nc2ccc(Cl)c(Cl)c2)s1	?	-2%	-5%	?	?	10%	4.8%	6%
COc1cc(Cl)c(C)cc1NC(=O)Cn1cnc2sc(C)c(S(=O)(=O)N3CCCCC3)c2c1=O	?	0%	.	-1%[46.1 µM]	0%	.	-6.5%	.
O=C(Nc1ccc(C(F)(F)F)cc1)c1cc(S(=O)(=O)NC2CCCCC2)ccc1F	.	12%	.	-10%[46.1 µM]	-4%	.	-3.9%	.
O=[N+]([O-])NC1=NCCN1Cc1ccc(Cl)nc1	.	.	13%	.	-27%	-2%	.	-3%

Additional structures follow.
SMILES	MARV entry inh	Cruzain inh noDet	NS1 function inh	Lassa entry inh	2A StopGo	SARS PLP yeast	Cruzain Triton	RE007 growth inh
COc1ccccc1N1CCN(C(=O)CSc2nc3ccccc3nc2N2CCC(C)CC2)CC1	?	.	28%	?	-6%	10%	.	10%
COc1ccc(CN2CCN(Cc3ccc(C(F)(F)F)cc3)CC2)c(OC)c1	.	.	-3%	.	?	-3%	.	-22%
Cc1ccc(OC(C)C(=O)N(C)Cc2ccccc2)c([N+](=O)[O-])n1 (stereo not given)	-5%[46.1 µM]	.	-11%	18%[46.1 µM]	11%	-4%	.	5%
CCOc1ccc(NC(=O)N(Cc2cn(CC)c3ccccc23)C2CCCCCC2)cc1	?	-6%	.	?	38%[activator]	.	4.2%	.
Cc1cccc(N2CCN(C(=O)c3cccc(-n4c(C)nc5cccnc54)c3)CC2)c1C	.	-7%	.	-13%[46.1 µM]	?	.	3.3%	.
Cc1cc(/C=c2\sc3nc4ccccc4n3c2=O)c(C)n1-c1ccc(C(=O)O)cc1	8%[46.1 µM]	.	-2%	15%	-5%	0%	.	0%
O=C(COc1ccc(C(=S)N2CCOCC2)cc1Cl)Nc1ccccc1Cl	-29%[46.1 µM]	.	.	-8%	17%	3%	.	-20%

Screening results: PubChem, National Center for Advancing Translational Sciences (NCATS)
